Cruzain inh noDet = cruzain (T. cruzi) inhibition without detergent; AID 1476; purified cruzain, Z-FR-AMC fluorescence, no detergent; Potency, µM, for inactives: max response, negative = inhibition, most hits filed as inhibitors; P25779; 200,000 compounds, 2.3% hits; active = well fitted curve in the direction sought with a large enough effect; inconclusive = small, poorly fitted or top-dose-only effect, or another doubt; inactive = no such curve, though single readings can be large; an effect the other way counts as inactive or inconclusive;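 note: plate controls were enzyme without inhibitor for no effect and buffer without enzyme for full effect; nearly all actives have a fitted effect of over 40% in size; top concentration of the series not given in the record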
Target sequence (P25779 123-467 limits assumed): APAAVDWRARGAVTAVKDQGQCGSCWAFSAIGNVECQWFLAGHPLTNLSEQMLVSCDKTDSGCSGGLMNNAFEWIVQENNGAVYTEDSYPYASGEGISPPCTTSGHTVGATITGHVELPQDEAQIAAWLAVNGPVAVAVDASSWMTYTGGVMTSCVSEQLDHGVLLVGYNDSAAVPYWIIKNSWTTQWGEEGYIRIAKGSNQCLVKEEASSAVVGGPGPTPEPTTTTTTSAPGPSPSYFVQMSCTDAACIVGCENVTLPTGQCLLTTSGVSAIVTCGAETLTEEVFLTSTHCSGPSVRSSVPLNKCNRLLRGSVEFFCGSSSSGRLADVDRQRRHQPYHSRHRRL
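Purified cruzain at 1.5 nM, pre-incubated 15 min with compound at room temperature in 100 mM sodium acetate pH 5.5, 5 mM DTT, 0.00005% Triton X-100. Reaction started with 2 uM Z-FR-AMC; AMC fluorescence increase over 60 s gives rate.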
Marburg entry inh = blocks Marburg virus binding to or entry into cells; Marburg virus pseudotyped entry inhibition, cell reporter; control for the full effect not named in the record; about a third of the inactives were read at about 46 µM; Potency, µM (doses to about 37.8 µM), for the others: top-dose activity change, negative = inhibition, hits mostly inhibitors; 300,000 compounds, 1.8% hits; active = well fitted inhibition curve with a large enough effect; inconclusive = small, poorly fitted or top-dose-only effect, or effect the other way; inactive = flat fitted curve, though single readings scatter; tested in HEK293 cells; about a fifth of its hits are not listed in these tables; note: % is set by controls: 0 for no effect and ±100 for the full control effect; luciferase read-out
Cruzain inh Det = inhibitors of Trypanosoma cruzi cruzain with detergent; P25779; purified cruzain, Z-FR-AMC fluorescence, 0.01% Triton; Potency, µM, for inactives: max response, negative = inhibition, hits mostly inhibitors; 200,000 compounds, 0.43% hits; AID 1478; active = well fitted curve in the direction sought with a large enough effect; inconclusive = small, poorly fitted or top-dose-only effect, or another doubt; inactive = no such curve, though single readings can be large; an effect the other way counts as inactive or inconclusive;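 note: plate controls were neutral wells for no effect and buffer without enzyme for full effect; nearly all actives have a fitted effect of over 40% in size; top concentration of the series not given in the record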
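Z-FR-AMC hydrolysis (2 uM substrate) by cruzain (1.5 nM) monitored kinetically at ex 360/em 450 nm after 15 min room-temperature compound exposure; 0.01% Triton X-100, pH 5.5, 5 mM DTT.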
NS1 inh = influenza NS1 inhibition | AID 2326 | 270,000 compounds, 0.4% hits | Potency, µM (highest dose often 46.1 µM), for inactives: at the top dose activity, positive = more growth | S. cerevisiae slowed by influenza A NS1, growth recovery by OD600; note: actives are rising curves; nearly all actives have a fitted effect of over 50% in size
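Compounds were scored for reversing the slow growth caused by influenza A NS1 in S. cerevisiae, measured by optical density at 600 nm. Assay medium contained 2% galactose at pH 6.0; NS1-free yeast of the same strain were the positive control.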
RE007 growth inh = less growth of the S. pombe RE007 Vpr strain. 360,000 compounds, 0.21% hits. AID 651644. Potency, µM (doses to about 92.2 µM), for the others: top-dose activity change, negative = less growth. S. pombe RE007 Vpr strain, BacTiter-Glo ATP luminescence, 24 h; control for the full effect not named in the record; active = well fitted falling curve with a large enough effect; inconclusive = small, poorly fitted or top-dose-only effect; inactive = no such curve, though single readings can be large or run the other way;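 note: % is set by controls: 0 for no effect and ±100 for the full control effect; nearly all actives have a fitted effect of over 50% in size; the assay follows cell death caused by Vpr and the record does not say whether a fall means rescue or toxicity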
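Fission yeast RE007 carrying one integrated HIV-1 vpr copy, seeded at OD 0.01 in PMG+AL medium with 23 nL pinned compound. Grown 24 h at 30 degrees; viability read by BacTiter-Glo luminescence after 5 min.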
SARS PLpro yeast = inhibitors of SARS-CoV papain-like protease in yeast | S. cerevisiae expressing SARS-CoV PLpro, growth rescue; control for the full effect not named in the record | Potency, µM (series often up to 32.9 µM), without a hit: at the highest dose activity, positive = growth rescue | 330,000 compounds, 0.19% hits | AID 485353; note: 0% is about no effect; nearly all actives have a fitted effect of over 55% in size; growth read by luminescence after 48 h
LASV entry inh = blocks Lassa virus binding to or entry into cells | Lassa virus pseudotype entry inhibition, cell reporter; control for the full effect not named in the record | Potency, µM (top dose mostly 37.9 µM), for the others: top-dose activity change, negative = inhibition, actives largely listed as inhibitors | 300,000 compounds, 1.2% hits | AID 540256; active means well fitted inhibition curve with a large enough effect; inconclusive means small, poorly fitted or top-dose-only effect, or effect the other way; inactive means flat fitted curve, though single readings scatter; tested in HEK293 cells; note: % is set by controls: 0 for no effect and ±100 for the full control effect; nearly all actives have a fitted effect of over 50% in size; luciferase read-out
StopGo reporter = lowers the luciferase signal of an FMDV 2A StopGo reporter; human cells with a luciferase reporter of 2A StopGo recoding; control for the full effect not named in the record; 410,000 compounds, 1.2% hits; Potency, µM (series often up to 57.9 µM), without a hit: at the highest dose signal change, negative = less light; active = well fitted falling curve with a large enough effect; inconclusive = small, poorly fitted or top-dose-only effect; inactive = no such curve, though single readings can be large or run the other way; tested in HEK293T cells; note: % is set by controls: 0 for no effect and ±100 for the full control effect; nearly all actives have a fitted effect of over 45% in size; luciferase light after 4 h
An asterisk follows results filed as active; ? = inconclusive; . = no result given; & = joins results of further samples; [ ] = another dose, or the depositor's remark. Unless noted, calls come from the whole dose curve; as a rule, active means well fitted rising curve with a large enough effect; inconclusive means small, poorly fitted or top-dose-only effect; inactive means no such curve, though single readings can be large or run the other way. Potency is the fitted concentration of half-maximal effect.

item | SMILES | Cruzain inh noDet | Marburg entry inh | Cruzain inh Det | NS1 inh
1 | CCCCCCn1c(Br)nc2c1c(=O)n(C)c(=O)n2C | . | -17%[46.1 µM] | . | -2%
2 | O=C1CCCN1CCCNC(=S)Nc1ccccc1Cl | . | 4%[46.1 µM] | . | .
3 | CCN(C(=O)COC(=O)c1cc(OC)ccc1Br)C1CCS(=O)(=O)C1 (stereo not drawn) | . | 0%[46.1 µM] | . | .
4 | O=C(Nc1ccc2ccccc2c1)c1ccc(NS(=O)(=O)c2ccc(Br)s2)cc1 | -15% | ? | -4.0% | 4%
5 | Cc1ccc(Cl)cc1NC(=O)C(Cc1ccccc1)N1C(=O)C2C3CCC(C3)C2C1=O (stereo not drawn) | 6% | ? | -5.1% | 5%
6 | CCS(=O)(=O)N1Cc2ccccc2CC1C(=O)Nc1cccc(S(=O)(=O)N(C)C)c1 (stereo not drawn) | . | . | . | 13%
7 | CC1(OC(=O)C2CCCC2)C(=O)C=C2C=C(c3ccsc3)N(C3CCCCC3)C=C2C1=O (stereo not drawn) | . | -15%&-15%[14.2 µM] | . | 17%
8 | O=C(CCCn1c(=O)c2ccccc2n(Cc2cccc(Cl)c2)c1=O)NCCc1ccc(Cl)cc1 | 1% | ? | -1.6% | .
9 | COC(=O)c1ccccc1SCC(=O)Nc1ccc(N2CCOCC2)cc1 | . | -23% | . | 12%
10 | COc1ccc(CC(=O)Nc2ccc(S(=O)(=O)Nc3ncccn3)cc2)cc1OC | . | 29%[46.1 µM] | . | 2%
11 | COCCN1C(=O)c2ccccc2C(C(=O)Nc2ccc3c(c2)OCCO3)C1c1ccc(F)cc1 (stereo not drawn) | 1% | ? | 2.0% | 7%
12 | CCc1ccc(C(=O)/C=C/c2cnn(C)c2C)s1 | -17% | 16% | -11% | -15%

item | RE007 growth inh | SARS PLpro yeast | LASV entry inh | StopGo reporter
1 | -4% | 1% | 10% | ?
2 | -13% | 14% | -2% | 1%
3 | 8% | 1% | 8%[46.1 µM] | -5%
4 | -4% | 2% | -2% | 11%
5 | 13% | -4% | 2% | -19%
6 | 7% | 3% | . | 9%
7 | 1% | 2% | . | 11%
8 | . | . | ? | -19%
9 | 4% | 3% | ? | 30%
10 | 1% | 1% | 6% | 14%
11 | 18% | -2% | 7% | 1%
12 | -11%[3.69 µM] | -25% | 30% | -14%

Random excerpt: 2 records from the list, in no set order.
item | SMILES | Cruzain inh noDet | Marburg entry inh | Cruzain inh Det | NS1 inh
8 | O=C(CCCn1c(=O)c2ccccc2n(Cc2cccc(Cl)c2)c1=O)NCCc1ccc(Cl)cc1 | 1% | ? | -1.6% | .
7 | CC1(OC(=O)C2CCCC2)C(=O)C=C2C=C(c3ccsc3)N(C3CCCCC3)C=C2C1=O (stereo not drawn) | . | -15%&-15%[14.2 µM] | . | 17%

item | RE007 growth inh | SARS PLpro yeast | LASV entry inh | StopGo reporter
8 | . | . | ? | -19%
7 | 1% | 2% | . | 11%

Carrying on.
item | SMILES | Cruzain inh noDet | Marburg entry inh | Cruzain inh Det | NS1 inh
13 | CC(C)C(c1nnnn1C1CCCC1)N1CCN(C(=O)c2ccco2)CC1 (stereo not drawn) | -3% | -29% | 0.2% | -6%
14 | O=C(NCC1CCCC(CNC(=O)Nc2ccc(Cl)cn2)C1)Nc1ccc(Cl)cn1 (stereo not drawn) | . | ? | . | 23%
15 | O=C(COC(=O)Cc1ccc(Cl)cc1Cl)NC1CC1 | . | ? | . | .
16 | COc1ccc(Cl)cc1NC(=O)N(C)CCc1c(C)nn(C)c1C | 4% | . | -0.3% | .
17 | Cc1ccc(-c2nc3ccsc3c(=O)[nH]2)cc1 | . | ? | . | -5%
18 | Cc1cccc(Nc2c([N+](=O)[O-])ccc3nonc23)c1 | . | . | . | -2%
19 | CC(C)(C)C(=O)OCc1cn(-c2ccccc2)nn1 | -7% | 32% | 1.2% | -15%
20 | CCn1c(C(=O)NCc2ccccc2OC)cc2sccc21 | -2% | 6%[46.1 µM] | -7.0% | .
21 | CN(C)CCNC(=O)CCCn1c(=O)c2cccn2c2ccccc21 | -15% | . | -14% | .
22 | C/C(=N\NC(=O)c1ccco1)c1ccc(NC(=O)C(F)(F)F)cc1 | . | . | . | -9%
23 | CCN(CC)S(=O)(=O)c1ccc(NC(=O)CCNC(=O)c2ccco2)cc1 | . | 1%[46.1 µM] | . | 3%
24 | Cc1ccccc1NC(=O)CSc1nc(-c2ccc(F)cc2)c2cccc(C)c2n1 | -15% | 6%[46.1 µM] | 3.1% | .

item | RE007 growth inh | SARS PLpro yeast | LASV entry inh | StopGo reporter
13 | 11% | 1% | 0% | .
14 | -11% | 0% | ? | -1%
15 | 6% | 23% | 0%[46.1 µM] | 0%
16 | . | . | ? | -13%
17 | -1% | -1% | ? | 8%
18 | -7% | 0% | . | 0%
19 | -1% | 2% | 12% | 52%[activator]
20 | . | . | . | -6%
21 | . | . | 3%[46.1 µM] | -13%
22 | 6% | -12% | . | 31%[activator]
23 | -3% | 1% | 8%[46.1 µM] | 0%
24 | . | . | 22%[46.1 µM] | -5%

11 compounds already listed, ordered by length of the SMILES, ascending.
item | SMILES | Cruzain inh noDet | Marburg entry inh | Cruzain inh Det | NS1 inh
17 | Cc1ccc(-c2nc3ccsc3c(=O)[nH]2)cc1 | . | ? | . | -5%
19 | CC(C)(C)C(=O)OCc1cn(-c2ccccc2)nn1 | -7% | 32% | 1.2% | -15%
21 | CN(C)CCNC(=O)CCCn1c(=O)c2cccn2c2ccccc21 | -15% | . | -14% | .
16 | COc1ccc(Cl)cc1NC(=O)N(C)CCc1c(C)nn(C)c1C | 4% | . | -0.3% | .
13 | CC(C)C(c1nnnn1C1CCCC1)N1CCN(C(=O)c2ccco2)CC1 (stereo not drawn) | -3% | -29% | 0.2% | -6%
22 | C/C(=N\NC(=O)c1ccco1)c1ccc(NC(=O)C(F)(F)F)cc1 | . | . | . | -9%
23 | CCN(CC)S(=O)(=O)c1ccc(NC(=O)CCNC(=O)c2ccco2)cc1 | . | 1%[46.1 µM] | . | 3%
24 | Cc1ccccc1NC(=O)CSc1nc(-c2ccc(F)cc2)c2cccc(C)c2n1 | -15% | 6%[46.1 µM] | 3.1% | .
10 | COc1ccc(CC(=O)Nc2ccc(S(=O)(=O)Nc3ncccn3)cc2)cc1OC | . | 29%[46.1 µM] | . | 2%
14 | O=C(NCC1CCCC(CNC(=O)Nc2ccc(Cl)cn2)C1)Nc1ccc(Cl)cn1 (stereo not drawn) | . | ? | . | 23%
11 | COCCN1C(=O)c2ccccc2C(C(=O)Nc2ccc3c(c2)OCCO3)C1c1ccc(F)cc1 (stereo not drawn) | 1% | ? | 2.0% | 7%

item | RE007 growth inh | SARS PLpro yeast | LASV entry inh | StopGo reporter
17 | -1% | -1% | ? | 8%
19 | -1% | 2% | 12% | 52%[activator]
21 | . | . | 3%[46.1 µM] | -13%
16 | . | . | ? | -13%
13 | 11% | 1% | 0% | .
22 | 6% | -12% | . | 31%[activator]
23 | -3% | 1% | 8%[46.1 µM] | 0%
24 | . | . | 22%[46.1 µM] | -5%
10 | 1% | 1% | 6% | 14%
14 | -11% | 0% | ? | -1%
11 | 18% | -2% | 7% | 1%

Later entries:
item | SMILES | Cruzain inh noDet | Marburg entry inh | Cruzain inh Det | NS1 inh
25 | CCOC(=O)C1CCN(C(=O)COC(=O)CNC(=O)c2ccc(OC)cc2)CC1 | . | -18%[46.1 µM] | . | .
26 | CCCn1c2ccccc2c2nnc(SCC(=O)Nc3ncccn3)nc21 | -9% | ? | -18% | 28%
27 | CCNC(=S)Nc1cc(OC)c(NC(=O)c2ccco2)cc1OC | . | 0% | . | -2%
28 | CC1(c2cc(C(F)(F)F)n3nc(C(=O)O)cc3n2)CC1 | -4% | 12% | -0.6% | 0%
29 | COc1ccc(N2CC(O)=C(c3nc(-c4ccc(F)cc4)cs3)C2=N)cc1 | . | 2%[46.1 µM] | . | .
30 | Cc1cc(NC(=O)CCOc2ccccc2)no1 | 6% | ? | 3.4% | -6%
31 | O=C(CN1C(=O)NC2(CCCCCC2)C1=O)c1cccs1 | . | -1% | . | .
32 | COc1ccc(C(=O)NNC(=O)CCC(=O)Nc2ccc(C)cc2C)cc1 | . | 2%[46.1 µM] | . | -6%
33 | C/C(=N\O)C1(C)N(O)C(C)(C)C(c2ccc(Br)cc2)=[N+]1[O-] (stereo not drawn) | 14% | -4% | -0.1% | -1%
34 | COc1ccc(S(=O)(=O)CCc2nc3ccccc3s2)cc1 | -4% | 14% | 0.1% | -14%
35 | CN(CCOc1ccccc1Cl)Cc1ccccc1 | . | . | . | -6%

item | RE007 growth inh | SARS PLpro yeast | LASV entry inh | StopGo reporter
25 | -16% | 1% | 3% | -11%
26 | 0% | -3% | -2% | -9%
27 | 9% | 2% | -9% | 5%
28 | 12% | -1% | 13% | 0%
29 | 3% | -3% | 5% | -2%
30 | 11% | -7% | -4% | 19%
31 | -6% | -1% | 13% | 6%
32 | 3% | 6% | -9%[46.1 µM] | 8%
33 | 32% | -10% | 2% | -6%
34 | -7% | -1% | 2% | -6%
35 | -4% | 0% | . | 15%
